Screens deposited in PubChem BioAssay by National Center for Advancing Translational Sciences (NCATS).
ClpP mod: qHTS Assay for Activators of ClpP; purified B. subtilis ClpP, FRET peptide cleavage, 20 min; ATP-dependent Clp protease proteolytic subunit (Bacillus subtilis (strain 168)), P80244; 340,000 tested, 1.9% active; Potency, µM (doses to about 57.5 µM), inactives show at the top dose activity change, negative = active; active = well fitted falling curve with a large enough effect; inconclusive = small, poorly fitted or top-dose-only effect; inactive = no such curve, though single readings can be large or run the other way; note: potency is the fitted concentration of half-maximal effect; the source files actives as falling curves though it sought activators and does not explain the sign; nearly all actives have a fitted effect of over 65% in size; many hits overshoot -100%
Target sequence (P80244 whole entry, looked up): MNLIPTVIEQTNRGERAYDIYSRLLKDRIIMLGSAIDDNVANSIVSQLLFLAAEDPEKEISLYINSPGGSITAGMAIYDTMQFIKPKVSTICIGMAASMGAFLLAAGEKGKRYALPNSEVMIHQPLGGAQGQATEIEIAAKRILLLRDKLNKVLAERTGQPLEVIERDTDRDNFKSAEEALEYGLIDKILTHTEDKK
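FRET quenching reversal measured ClpP activation: 10 microg/mL B. subtilis ClpP at pH 8 with the FRET-FV decapeptide, read at 430 nm after 320 nm excitation. The 20-min minus 0-min signal was scaled between DMSO/no-enzyme wells and ADEP (5.8 microM final).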
TRPML1 ag: activates the human TRPML1 channel; TRPML1-expressing cells, Ca2+ dye fluorescence, FDSS; host cell line not named in the record; reference of the full effect not given here; activation, % (no concentration beside the values); 410,000 tested, 0.12% active; in the data active = activation above about 50%; inconclusive = about 30% to 50%; inactive = below about 30%; note: 0% is about no effect; the text of the record puts the active cut at 80%
Target sequence (Q9GZU1 whole entry, looked up): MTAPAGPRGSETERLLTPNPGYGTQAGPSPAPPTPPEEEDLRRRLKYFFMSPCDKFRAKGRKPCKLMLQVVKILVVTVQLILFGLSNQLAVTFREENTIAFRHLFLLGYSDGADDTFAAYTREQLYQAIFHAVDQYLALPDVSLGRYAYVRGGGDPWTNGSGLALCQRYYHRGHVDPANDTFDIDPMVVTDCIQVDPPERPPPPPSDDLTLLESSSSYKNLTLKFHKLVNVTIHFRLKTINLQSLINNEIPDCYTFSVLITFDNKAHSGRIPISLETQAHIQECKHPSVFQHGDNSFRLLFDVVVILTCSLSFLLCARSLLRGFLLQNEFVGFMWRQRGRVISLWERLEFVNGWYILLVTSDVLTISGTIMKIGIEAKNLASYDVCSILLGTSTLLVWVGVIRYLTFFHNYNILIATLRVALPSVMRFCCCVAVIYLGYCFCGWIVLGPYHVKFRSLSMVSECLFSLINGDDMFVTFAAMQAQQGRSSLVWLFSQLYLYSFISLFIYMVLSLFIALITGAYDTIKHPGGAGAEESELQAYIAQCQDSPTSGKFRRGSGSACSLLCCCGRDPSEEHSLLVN
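Calcium fluorescence on an FDSS kinetic reader gave the read-out. Tet-induced TRPML1-DL cells were plated overnight, dye-loaded (Ca8 with quencher, 45-90 min, room temperature, dark), then read 110 s after compound addition, and again 110 s after 4uM final 54-4 (EC80).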
gsp antag: gsp mutant antagonism | gsp-mutant cells, cAMP HTRF, 30 min; control for the full effect not named in the record | Potency, µM (doses to about 76.9 µM), for the others: at the top dose activity change, negative = inhibition, usual class: inhibitors | 340,000 tested, 0.4% active; active = falling curve of any shape with a large fitted effect; inconclusive = falling curve, mostly with a smaller effect; inactive = flat or rising curve; cell line not stated here;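 note: intracellular cAMP measured with PDE inhibitor Ro 20-1724 present during compound exposure; potency is the fitted concentration of half-maximal effect; % is set by controls: 0 for no effect and ±100 for the full control effect; nearly all actives have a fitted effect of over 65% in size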
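HTRF cAMP measurement after 30 min RT detection following 30 min, 37C compound treatment alongside […] (added as 300 uM solution) in G418-selected cells seeded at 2000/well and grown 16–24 h.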
Menin-MLL FL inh: displaces fluorescein MLL peptide from human menin. 290,000 tested, under 10 active. Fluorescence polarization, fluorescein-MLL peptide displacement from menin. FP activity change, % at 61.4 µM; inconclusive = falling polarisation curve, or a change in total fluorescence; inactive = total fluorescence flat and polarisation flat or rising; no compound was filed as active; the % refers to the polarisation; negative = inhibition;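 note: % of control where 0% means no effect; inhibitors lower the polarisation; unlabelled MLL peptide was the positive control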
TRPML1 blocker: human mucolipin-1 channel inhibition | Q9GZU1 | AID 624415 | 390,000 tested, 0.02% active | TRPML1-inducible cells, Ca2+ dye fluorescence, FDSS; stronger effect = lower value; inhibition of EC80 agonist-evoked calcium signal | activity change, negative = inhibition, % (test concentration not listed); in the data active means activity change below about -50%; inconclusive means about -30% to -50%; inactive means above about -30%;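 note: stimulus is agonist 54-4 at its EC80 concentration; % is set by controls: 0 for no effect and ±100 for the full control effect; compound concentration not given in the record; the text of the record puts the active cut at -80%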
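TRPML1-DL cells, Tet-induced overnight (~16 h, 37 °C) at 1,500 cells/well, were loaded with Ca8 no-wash dye plus quencher for 45-90 min at room temperature. Compounds were pinned during FDSS kinetic reading; agonist 54-4 at EC80 (4 uM final) then added.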
gsp agonist: agonists of gsp mutant (McCune-Albright syndrome); gsp mutant cells, cAMP HTRF, 30 min; control for the full effect not named in the record; Potency, µM (doses to about 76.9 µM), inactives show top-dose activation (cAMP increase), hits mostly activators; 340,000 tested, 0.13% active; AID 624287; active = well fitted activation curve with a large enough effect; inconclusive = small, poorly fitted or top-dose-only effect, or another doubt; inactive = no such curve, though single readings can be large or run the other way; cell line not stated here;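 note: phosphodiesterase inhibitor Ro 20-1724 added with compounds to block cAMP breakdown; potency is the fitted concentration of half-maximal effect; nearly all actives have a fitted effect of over 60% in size; about a fifth of the inactives were tested at one dose only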
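Cells stably selected in G418 were plated at 2000/well, grown 16-24 hr, then given compounds in DMSO with the PDE inhibitor […] (300 uM solution added) for 30 min at 37C; cAMP was read by HTRF.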
* = called active by the depositor; ? = inconclusive; . = no result given; [ ] = dose if it differs, or a comment. Outcome played no part in choosing rows (roughly 2.1% active in at least one column).

SMILES | ClpP mod | TRPML1 ag | gsp antag | Menin-MLL FL inh | TRPML1 blocker | gsp agonist
Cc1cccc2cc(COC(=O)C(C)(C)C)c(=O)[nH]c12 | -4.4% | -1.1 | 8% | -1.9 | -2 | 13%
COC(=O)c1[nH]c2cc(OC)ccc2c1N | ? | -0.5 | ? | 3.4 | 2 | -10%
CC(C)NC(=O)c1ccc2c(c1)N(Cc1ccccc1)C(=O)C(C)(C)O2 | . | 2.9 | -11% | 0.4 | 7 | -7%
Cc1ccc(-n2nc3c(c2NC(=O)/C=C\c2ccc4c(c2)OCO4)CSC3)c(C)c1 | ? | -0.9 | -12% | 1.7 | -10 | -21%
C[C@@H](O)Cc1cn(CC(=O)NCCCCCCCCCCC(=O)N2CCNCC2)nn1 | -0.2% | -0.2 | 24% | . | -12 | ?
C[C@@H]1CN([C@@H](C)CO)C(=O)CCCn2nncc2CO[C@H]1CN(C)C(=O)C1CC1 | 0.4% | -0.5 | . | . | 13 | 33%
COc1ccc(C(NC(=O)c2ccco2)c2ccc(OC)c(OC)c2)cc1 (stereo not drawn) | -3.4% | -0.3 | -3% | 6.8 | 4 | 6%
Nc1ccc(-c2c3ccc(=O)cc-3oc3cc(O)ccc23)cc1C(=O)O | . | 65* | -7% | ? | -11 | 21%
CCCCC1CCC(C(=O)Nc2ccc(S(=O)(=O)Nc3nccs3)cc2)CC1 (stereo not drawn) | -0.8% | 1.0 | -5% | 0.7 | -6 | 20%
Cc1ccc(S(=O)(=O)N(CC(=O)NC2CCCC2)c2cccc(C)c2)cc1 | -2.2% | -1.7 | -14% | -0.8 | 9 | -9%
c1ccc(Cn2cnc3ccccc32)cc1 | 0.1% | 0.2 | -1% | -5.7 | 13 | ?
S=c1[nH]nc(-c2ccc3ncccc3c2)n1-c1ccc2c(c1)OCCO2 | . | -0.5 | -29% | -0.3 | 6 | -10%[15.4 µM]
CNc1cccc(-c2cc(OC)ccc2OC)n1 | -25% | 0.0 | . | . | 0 | .
O=C(NNC(=O)c1cc(Cl)ccc1O)c1cccc(S(=O)(=O)N2CCOCC2)c1 | 1.0% | 1.1 | -28% | . | 6 | 21%[15.4 µM]
OCCCc1n[nH]c(=S)n1-c1ccccc1 | . | 0.4 | 9% | -3.9 | 4 | -5%
Cc1cccn2c(=O)c3cc(C(=O)NCc4cccnc4)c(=N)n(CCCO)c3nc12 | 4.2% | -0.8 | . | . | 3 | .
Cc1ccc(-c2c(C)n([O-])c3c([n+]2=O)CCC3)o1 | -2.4% | 0.6 | -6% | 0.5 | 20 | 0%
COc1ccccc1S(=O)(=O)n1cc(Cc2ccccc2)c(N)n1 | -2.9% | 3.1 | -16% | 1.5 | -10 | 1%
O=C1C2C3C=CC(C3)C2C(=O)N1CCCO (stereo not drawn) | 2.9% | 0.2 | 11% | 1.9 | 9 | ?
CCOC(=O)C1=C(C)N(c2ccc(OC)cc2)C(=O)/C1=C\c1cccs1 | -2.5% | -0.1 | 5% | -0.4 | -3 | -28%
COc1cccc(/C=C/c2nc(C#N)c(N3CCCCC3)o2)c1 | -56% | 3.3 | . | . | 46 | .
Cc1ncc(CN2CCN(Cc3ccccc3)C(CCO)C2)s1 (stereo not drawn) | -1.7% | -0.6 | 10% | 2.4 | 14 | ?
COc1ccc(CC(C)N2CCN(Cc3ccccc3)CC2)cc1OC (stereo not drawn) | . | 0.3 | 5% | -6.4 | -7 | -30%[inhibitor]
COc1ccccc1C(=O)Nc1ccnn1C1CCN(Cc2ccn[nH]2)CC1 | 1.3% | -0.1 | 4% | . | 10 | -5%[15.4 µM]
CN(C(=O)c1ccc(Cl)cc1)C1=CCCCC1CCC#N (stereo not drawn) | -1.3% | 0.1 | -1% | 2.4 | 6 | ?
CCC(=O)N1CCc2cc(Br)cc(S(=O)(=O)NCCc3ccc(C)cc3)c21 | 2.1% | 4.7 | . | . | 5 | .
O=[N+]([O-])c1ccc(C(c2sc3nc(-c4ccco4)nn3c2O)N2CCN(c3cccc(Cl)c3)CC2)cc1 (stereo not drawn) | -0.5% | 0.2 | . | . | 0 | .
CCOC(=O)c1nn(-c2ccc(C)c(Cl)c2)c(=O)c(C#N)c1C | . | 0.1 | -8% | -6.4 | -7 | -20%
Cc1ccc(C(=O)Nc2ccc(N3CCN(S(C)(=O)=O)CC3)cc2)cc1C | . | 0.7 | 0% | -0.1 | 39 | -1%
CC1CN(Cc2c(O)ccc3c(=O)c(-c4ccccc4Cl)coc23)CC(C)O1 (stereo not drawn) | 3.2% | 1.0 | -6% | 4.4 | 14 | 4%

The final 5 records of the section above are carried over, then new ones follow:
SMILES | ClpP mod | TRPML1 ag | gsp antag | Menin-MLL FL inh | TRPML1 blocker | gsp agonist
CCC(=O)N1CCc2cc(Br)cc(S(=O)(=O)NCCc3ccc(C)cc3)c21 | 2.1% | 4.7 | . | . | 5 | .
O=[N+]([O-])c1ccc(C(c2sc3nc(-c4ccco4)nn3c2O)N2CCN(c3cccc(Cl)c3)CC2)cc1 (stereo not drawn) | -0.5% | 0.2 | . | . | 0 | .
CCOC(=O)c1nn(-c2ccc(C)c(Cl)c2)c(=O)c(C#N)c1C | . | 0.1 | -8% | -6.4 | -7 | -20%
Cc1ccc(C(=O)Nc2ccc(N3CCN(S(C)(=O)=O)CC3)cc2)cc1C | . | 0.7 | 0% | -0.1 | 39 | -1%
CC1CN(Cc2c(O)ccc3c(=O)c(-c4ccccc4Cl)coc23)CC(C)O1 (stereo not drawn) | 3.2% | 1.0 | -6% | 4.4 | 14 | 4%
CC1=CC(C)(C)N=C(NC#N)N1 | -0.3% | -0.2 | 5% | 0.6 | 4 | -24%
O=C(C1CCN(S(=O)(=O)c2ccccc2)CC1)N1CCCCC1 | . | 0.2 | -2% | -2.3 | 18 | -5%[15.4 µM]
CN(CCCOc1ccccc1F)Cc1ccccc1 | 1.8% | 0.4 | 12% | 1.7 | 53 | -1%
COc1cccc(Cc2n[nH]c(=S)n2Cc2ccco2)c1 | 0.0% | -0.5 | -2% | 0.2 | -2 | 16%[15.4 µM]
COc1cccc(OCCCN2CCN(S(=O)(=O)c3ccc(NC(C)=O)cc3)CC2)c1 | -0.8% | 0.3 | ? | 0.9 | 45 | -33%[inhibitor]
O=C(OCc1nnc(-c2ccccc2)o1)C1CCN(S(=O)(=O)c2cccs2)CC1 | 0.4% | 1.9 | -1% | 3.5 | 18 | -9%
COC(=O)c1ccc(CSc2nnc3c(n2)[nH]c2ccccc23)cc1 | . | 0.5 | 12% | 1.8 | 13 | -2%[15.4 µM]
CN(C)CCNC(=O)COc1ccc(Cl)cc1Cl | 1.8% | 0.2 | 7% | 3.8 | -15 | -28%
CCOC(=O)N1CCC(NC(=O)c2ccc3c(c2)N(Cc2ccccc2)C(=O)c2ccccc2S3(=O)=O)CC1 | -4.3% | 1.7 | . | . | -13 | .
COc1cccc(CCN2CCC(CNS(=O)(=O)c3cc(-c4cc(C)no4)ccc3C)CC2)c1 | -0.2% | 6.1 | 4% | . | 10 | -40%[inhibitor]

Rewritten as comma-separated lines: part of the list above.
Molecule,ClpP mod,TRPML1 ag,gsp antag,Menin-MLL FL inh,TRPML1 blocker,gsp agonist
COc1cccc(Cc2n[nH]c(=S)n2Cc2ccco2)c1,0.0%,-0.5,-2%,0.2,-2,16%[15.4 µM]
COc1cccc(OCCCN2CCN(S(=O)(=O)c3ccc(NC(C)=O)cc3)CC2)c1,-0.8%,0.3,?,0.9,45,-33%[inhibitor]

(more compounds)
SMILES | ClpP mod | TRPML1 ag | gsp antag | Menin-MLL FL inh | TRPML1 blocker | gsp agonist
Cc1ccc(-n2ncc3c(NCCCN4CCOCC4)ncnc32)c(C)c1 | -17% | -0.4 | 9% | -0.5 | -7 | -27%
C=CCN(C(=O)Cn1ncc2c1-c1cc(C)ccc1OC2)c1ccccc1 | 0.2% | 1.7 | -5% | 0.4 | 6 | -40%[inhibitor]
COc1ccc(NC(=O)CSc2nnc3ccc(-c4ccccn4)nn23)cc1 | 16µM* | 2.0 | 12% | . | -3 | 1%
CCN(CC(=O)Nc1ccc(NC(C)=O)cc1)C(=O)c1ccccc1SCC(=O)N1CCCC1 | -8.0% | 0.9 | 24% | . | 12 | 3%
O=C(O)COc1ccccc1-c1nc(-c2ccccc2)c(-c2ccccc2)[nH]1 | 4.9% | -0.9 | -29% | -2.8 | -8 | 5%
CC12CNCC(C)(CN(C3(O)C(=O)Nc4ccc(Br)cc43)C1)C2=O (stereo not drawn) | 1.8% | -0.2 | -4% | 1.9 | 7 | -11%
CN(Cc1cccs1)C(=O)COc1cccc2c1OC(C)(C)C2 | -0.4% | 2.2 | 7% | . | 2 | -5%
CN(CCCN1CCCCC1)C(=O)c1cc(COc2ccc(F)cc2F)on1 | -0.9% | -0.2 | 8% | -6.9 | -7 | 38%
O=C(c1ccc(Cl)c([N+](=O)[O-])c1)N(c1ccccn1)c1ccccn1 | -6.4% | -1.3 | 3% | 1.7 | 9 | ?
COc1ccc(NC(=O)CC2S/C(=N\c3nccs3)N(C)C2=O)cc1 (stereo not drawn) | . | 1.8 | -11% | 3.2 | -8 | -2%[15.4 µM]
COCCNC(=O)C(=O)NCCN1CCNCC1 | . | 0.4 | 6% | -1.7 | 4 | -13%
COc1cc(C(C)=O)ccc1OCC(=O)Nc1ccccc1N1CCCCC1 | 0.7% | 2.6 | -26% | . | 20 | -1%[15.4 µM]
Cc1cn2c(=O)cc(COC(=O)c3cccc(NC(=O)COc4ccc(Cl)cc4)c3)nc2s1 | -8.0% | 2.8 | . | . | -9 | .
CCOc1ccc(S(=O)(=O)Nc2cc(SCC(=O)O)c(O)c3ccccc23)cc1 | 29% | . | 5% | ? | . | -17%
COc1cccc(CNC(=O)COC(=O)C23CC4CC(CC(Cl)(C4)C2)C3)c1 | 0.5% | 2.7 | 5% | . | -10 | ?
CC1CC(C)CN(C(=O)C2CCN(S(=O)(=O)c3cccs3)CC2)C1 (stereo not drawn) | . | -0.6 | -17% | 6.0 | 7 | -2%[15.4 µM]
CCOC(=O)c1[nH]c2ccc(F)cc2c1NC(=O)CN1CCN(C/C=C/c2ccccc2)CC1 | ? | -0.4 | -3% | 1.8 | -5 | -23%
O=C(CSc1nnc(CNC(=O)c2cccs2)o1)Nc1cccc(Cl)c1 | 1.2% | 4.8 | -9% | -3.0 | 7 | 9%
Cc1ccc(C)c(Oc2ncnc(N)c2[N+](=O)[O-])c1 | 0.7% | -0.9 | 13% | 0.6 | 36 | -41%[inhibitor]
CCCOC(=O)c1ccc(NC(=O)c2cccc(S(=O)(=O)N3CCN(C(C)=O)CC3)c2)cc1 | . | 1.6 | . | . | 33 | 3%[15.4 µM]
COc1ccccc1-n1c(CNC(=O)c2ccc(S(=O)(=O)N3CCCCC3)cc2)n[nH]c1=S | -2.3% | 0.1 | 5% | . | 9 | -1%[15.4 µM]
